# NPYLR7 ag = activates Aedes aegypti NPYLR7 receptor; HEK293T NPYLR7/Galpha15, GCaMP6s calcium fluorescence; activation, % at 10 µM; 0.15% of 270,000 active; in the data active = activation above about 40%;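 also: 0% = vehicle and 100% = reference agonist at the receptor; some compounds past the cut are filed as inactive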
# NPYLR7 ag max-min = recorded beside NPYLR7 ag, whose call it bears; activation, %; measured here: Max-Min RFU normalised activation; some inactives read as strong as hits;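 span of the calcium signal over five minutes; 0% = vehicle and 100% = native peptide agonist; compound fluorescence can raise it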
# * marks the source's active call; other numbers are inactive results; & = joins results of further samples. Only part of the results is shown. The share of hits here may be higher or lower than overall.
1: CC(=O)Nc1cc([N+](=O)[O-])c(N(C)S(=O)(=O)c2ccccc2)c2ccccc12
2: CC1CCCC(C)C1Nc1ncc(Br)cn1 (stereo not drawn)
3: CN(CCc1ccccn1)Cc1cccc(C(=O)Nc2cnn(C)c2)c1
4: O=C(O)C(Sc1ncn[nH]1)c1ccccc1 (stereo not drawn)
5: O=C(c1cc(-c2ccc(F)cc2)nc2cc(-c3ccccc3)nn12)N1CCN(C/C=C/c2ccccc2)CC1

Screen / compound no.	1	2	3	4	5
NPYLR7 ag max-min	1	-6&0	3	-11	2&9
NPYLR7 ag	1	-4&1	7	-2	-7&0

6: CCC(CC)C(=O)N(C)c1c(C)nc2c(OCC(N)=O)cccn12
7: CCc1nc2c(OCc3cccc(Cl)c3)cccn2c1N(C)C(=O)c1ccc(OC)cc1
8: COc1ccc(C[n+]2cccc(C(N)=O)c2)cc1F
9: O=C(C1=CCCCC1)N1CCC(CO)(Cc2ccccc2C(F)(F)F)CC1
10: Cn1cc(C(=O)N2CCN(C(=O)CCC3CCCCC3)CC2)c2nn(-c3ccccc3)c(=O)c-2c1

Screen / compound no.	6	7	8	9	10
NPYLR7 ag max-min	-7	0	-5	1	-2
NPYLR7 ag	5	5	-1	4	0

# Whole records, looked up by structure. Order of screens: NPYLR7 ag max-min | NPYLR7 ag
# Cn1cc(C(=O)N2CCN(C(=O)CCC3CCCCC3)CC2)c2nn(-c3ccccc3)c(=O)c-2c1 across the screens: -2 | 0
# CC1CCCC(C)C1Nc1ncc(Br)cn1 (stereo not drawn) across the screens: -6&0 | -4&1

# New compounds follow:
11: COCC(=O)N1CCCN(CCC(C)c2ccccc2)CC1 (stereo not drawn)
12: COc1cc2c(cc1OC)C(CNC(=O)c1cccc(Cl)c1)N(C(=O)NC(C)(C)C)CC2 (stereo not drawn)
13: CC(C)CNC(=O)c1ccc(CN2CC(C)OC(C)C2)cc1 (stereo not drawn)
14: Cc1ccc2cc(CN(C)Cc3cnn(C)c3)c(=O)[nH]c2c1
15: Cc1ccc(-n2nc(C)c(-c3ccccc3)c2NC(=O)CN(C(=O)Cc2ccccc2)C(C)C)cc1

Screen / compound no.	11	12	13	14	15
NPYLR7 ag max-min	-7	9	2	3	0
NPYLR7 ag	-4	7	2	7	-2

# Copied from above for reference:
6: CCC(CC)C(=O)N(C)c1c(C)nc2c(OCC(N)=O)cccn12
7: CCc1nc2c(OCc3cccc(Cl)c3)cccn2c1N(C)C(=O)c1ccc(OC)cc1
8: COc1ccc(C[n+]2cccc(C(N)=O)c2)cc1F
9: O=C(C1=CCCCC1)N1CCC(CO)(Cc2ccccc2C(F)(F)F)CC1
10: Cn1cc(C(=O)N2CCN(C(=O)CCC3CCCCC3)CC2)c2nn(-c3ccccc3)c(=O)c-2c1
11: COCC(=O)N1CCCN(CCC(C)c2ccccc2)CC1 (stereo not drawn)
12: COc1cc2c(cc1OC)C(CNC(=O)c1cccc(Cl)c1)N(C(=O)NC(C)(C)C)CC2 (stereo not drawn)

Screen / compound no.	6	7	8	9	10	11	12
NPYLR7 ag max-min	-7	0	-5	1	-2	-7	9
NPYLR7 ag	5	5	-1	4	0	-4	7

# Additional records
16: Cc1ccc(C2CC(C(F)(F)F)n3ncc(C(=O)NCc4ccco4)c3N2)cc1 (stereo not drawn)
17: CCCN(Cc1nccn1C)C(=O)CCn1c(C)cc(C)nc1=O
18: Nc1nnc(SCc2cc(F)ccc2F)s1
19: CN(C)C(=O)Cc1nc(-c2ccccc2)c(C(=O)Nc2ccccc2)s1
20: CC(C)n1cc(C(=O)NCC2CCCCC2)c(=O)c(C(=O)N2CCc3ccccc3C2)c1

Screen / compound no.	16	17	18	19	20
NPYLR7 ag max-min	-14	-4	-4	13	-1
NPYLR7 ag	-9	0	-5	13	3

# Values by screen from the entries so far.
# Nos. 2 to 13 in NPYLR7 ag max-min read -6&0, 3, -11, 2&9, -7, 0, -5, 1, -2, -7, 9, 2
# Nos. 2 to 13 in NPYLR7 ag read -4&1, 7, -2, -7&0, 5, 5, -1, 4, 0, -4, 7, 2

# More structures
21: O=S(=O)(NCc1ccc(F)cc1)c1ccc2c(c1)CCCC2
22: CC(C)(C)C(=O)Nc1cccc(NC(=O)c2ccc(N3CCOCC3)nc2)c1
23: O=C(c1cc(S(=O)(=O)N2CCOCC2)ccc1Cl)N1CCCC(CO)C1 (stereo not drawn)
24: Cc1ccc(CSc2ncc(CO)n2CC(=O)NCc2ccccc2)cc1
25: COc1ccc(-c2n[nH]c(CC(C)C)n2)c(OC)n1

Screen / compound no.	21	22	23	24	25
NPYLR7 ag max-min	5	-4	-3	5	1
NPYLR7 ag	0	-4	-2	9	-2

26: CC(C)n1ccc2c(nnc3c(-c4ccccc4)cnn32)c1=O
27: COc1ccccc1C(=O)N1CCSC1c1cccc(OCc2ccccc2)c1 (stereo not drawn)
28: C=CCNC(C(=O)Nc1cc(Cl)cc(Cl)c1)c1ccccc1 (stereo not drawn)
29: Cc1ccc(Nc2nc(-c3cnc(N4CCN(C)CC4)nc3C)cc(=O)[nH]2)cc1
30: O=C(c1ccc(Cl)cc1)N(Cc1ccco1)Cc1nccn1Cc1cccc(F)c1

Screen / compound no.	26	27	28	29	30
NPYLR7 ag max-min	2	14	0	-5	4
NPYLR7 ag	2	7	2	-3	-5

31: CNC(=O)[C@H]1CN(C(=O)c2ccco2)[C@]2(C)C(=O)N(CCOC)c3ccccc3[C@H]12
32: CN(CC(=O)Nc1ccc(Cl)cc1)C(=O)Cc1ccccc1F
33: COc1cc(C)ccc1Oc1cnn(C)c(=O)c1Nc1cccc(C(=O)NCC2CCCO2)c1 (stereo not drawn)
34: O=[N+]([O-])c1cc2c(cc1/C=N\Nc1nc(-c3ccccc3)c3cc(Br)ccc3n1)OCCO2
35: O=C(NCC1CCN(Cc2ccccc2)CC1)C(=O)NCC(F)(F)F

Screen / compound no.	31	32	33	34	35
NPYLR7 ag max-min	7	-4	12	9	30
NPYLR7 ag	4	-2	1	7	33

36: O=C(O)CN1CC2N(C(=O)c3cccs3)C3CCC2(CC3)OC1=O (stereo not drawn)
37: COc1ccc(Cn2c(-c3ccccc3)nc3oc4ccccc4c(=O)c3c2=O)cc1
38: COC(=O)c1ccc(-c2nc(CN(C)C3CCOC3)c(C)o2)cc1 (stereo not drawn)
39: COC(=O)C(c1ccccc1F)C1C=CC(NC(=O)c2sccc2Cl)C1 (stereo not drawn)
40: Cc1nnc(SCCCNC(=O)C23CC4CC(CC(C4)C2)C3)s1

Screen / compound no.	36	37	38	39	40
NPYLR7 ag max-min	17	4	1	1	-7
NPYLR7 ag	21	7	3	2	-3

41: Cc1cccc(-c2nnc(NC(=O)C(NC(=O)c3cccc(Br)c3)C(C)C)s2)c1 (stereo not drawn)
42: CCN1CCC(NC(=O)C2CCN(S(=O)(=O)c3c(C)cc(C)cc3C)CC2)CC1
43: O=C1C2C3C=CC(CC3)C2C(=O)N1/N=C\c1ccc(I)o1 (stereo not drawn)
44: N#Cc1cccc(NC(=O)/C=C/C(=O)O)c1
45: COc1ccc(CN(Cc2ccc(F)cc2)C(=O)c2cccc(Br)c2)cc1OCc1nc(CO)cs1

Screen / compound no.	41	42	43	44	45
NPYLR7 ag max-min	22	9	-15	-2	8
NPYLR7 ag	21	7	-10	-2	-1

46: O=C1NC2(CCN(Cc3cccnc3)CC2)Nc2ccccc21
47: Cc1nc2n(n1)C(=O)C(C(c1cccc(F)c1)N1CC(C)OC(C)C1)S2 (stereo not drawn)
48: O=C(CCC1CCN(C(=O)CC2=CCCCC2)CC1)N1CCC(Cc2ccccc2)CC1
49: CCCCN(C)S(=O)(=O)c1ccc2c(c1)nc(SCc1ccc(OCC)cc1)n2C1CCCC1
50: Cc1cc(C)c(S(=O)(=O)N2CCN(c3nc4nccc(-c5cc(Cl)ccc5Cl)n4n3)CC2)c(C)c1

Screen / compound no.	46	47	48	49	50
NPYLR7 ag max-min	16	-1	-13	3	15
NPYLR7 ag	1	0	-12	12	27

51: C=CCNS(=O)(=O)c1cc2c3c(c1)CCN3C(=O)CC2
52: Cc1noc(C)c1CNCc1cnccc1NC(=O)OC(C)(C)C
53: COc1ccc(-n2c(=O)[nH]c3c(C(N)=O)nc(-c4ccco4)nc32)cc1OC
54: Cc1cc(O)c(C(c2cccnc2)N2CCN(c3ccccc3)CC2)c(=O)n1Cc1ccco1 (stereo not drawn)
55: C=CCOCC(O)CN1CCC(=O)N(Cc2ccco2)Cc2ccccc21 (stereo not drawn)

Screen / compound no.	51	52	53	54	55
NPYLR7 ag max-min	8	7	-8	5	12
NPYLR7 ag	10	5	-5	11	6

56: COc1ccc(CCCNC(=O)c2ccc(-c3cccc(F)c3)nc2)cc1
57: Cc1ccnc(NS(=O)(=O)c2ccc(N)cc2)n1
58: COc1cc(OC)cc(N2CCC(NC(=O)c3ccccc3)C2)c1 (stereo not drawn)
59: CC(Nc1ccc2c(c1)OCO2)c1nc(N)nc(N(C)C)n1 (stereo not drawn)
60: O=C(O)CCN1CCSC1=O

Screen / compound no.	56	57	58	59	60
NPYLR7 ag max-min	2	-12&-9	-2	-1	7
NPYLR7 ag	4	-11&-4	-1	0	1

61: CSc1cccc(-n2c(CCN)n[nH]c2=O)c1
62: Cc1nn(S(=O)(=O)N(C)C)c(C)c1CN1C(=O)c2ccccc2C1=O
63: O=C1CCC(C(=O)N2CCCC(N3CCN(c4cccc(C(F)(F)F)c4)CC3)C2)=NN1 (stereo not drawn)
64: O=C(Cc1cccs1)Nc1ccc(S(=O)(=O)N2CCCC2)cc1
65: Cc1ccc(C(=O)Nc2cccc(-n3nc(OCC(C)C)nc3-c3ccc(F)cc3)c2)cc1

Screen / compound no.	61	62	63	64	65
NPYLR7 ag max-min	-3	7	2	6	19
NPYLR7 ag	2	9	4	8	14

66: O=C(CN1CCOC(c2ccc(Cl)c(Cl)c2)C1)NCc1ccco1 (stereo not drawn)
67: Cc1sc2nc(-c3cccs3)nc(NCCCO)c2c1C
68: CC1c2cccn2CCN1S(=O)(=O)c1c(Cl)cc(Br)cc1Cl (stereo not drawn)
69: CCn1cc(C(=O)N2CC[C@@](C)(O)[C@@H](Cc3ccccc3)C2)cn1
70: CCCS(=O)(=O)Nc1ccc(-c2ccc(OC)nn2)cc1

Screen / compound no.	66	67	68	69	70
NPYLR7 ag max-min	-2	-5	-4	-1	10
NPYLR7 ag	-1	-1	-1	0	-2

71: Cn1c(SCC(=O)Nc2ccc3c(c2)OCO3)nnc1-c1ccccc1
72: CC(C)C(C)NC(=O)CSc1ncnc2sc3c(c12)CCC3 (stereo not drawn)
73: O=C(NCC1CCCO1)c1cc(COc2ccccc2F)[nH]n1 (stereo not drawn)
74: Clc1ccc(-c2[nH]ncc2CN2CCOC3(CNCCOC3)C2)cc1 (stereo not drawn)
75: O=c1c(Cl)c(N2CCN(C3CCS(=O)(=O)C3)CC2)cnn1-c1nc2ccccc2[nH]1 (stereo not drawn)

Screen / compound no.	71	72	73	74	75
NPYLR7 ag max-min	3	-3	-5	4	9
NPYLR7 ag	10	-2	-2	8	0

76: COc1ccc(C2(O)CN(c3ccccc3)C3=[N+]2CCS3)cc1OC (stereo not drawn)
77: CC(C)CCOc1ccc(CO[C@@H]2[C@H]3OC(C)(C)O[C@H]3O[C@@H]2C(O)CO)cc1 (stereo partly drawn)
78: Cn1c(N)c(C2=NCCC2)c(=O)n1-c1ccccc1
79: CN(CC(=O)Nc1ccc(F)cc1)C(=O)CSc1nnc(-c2ccc(Br)cc2)o1
80: Cn1cc(/C=C/C(=O)N2CCCC(c3n[nH]c(=O)n3-c3ccccc3)C2)cn1 (stereo not drawn)

Screen / compound no.	76	77	78	79	80
NPYLR7 ag max-min	5	-4	2	10	6
NPYLR7 ag	5	-2	3	15	9

81: Cc1noc(-c2ccccc2)c1NC(=O)Nc1cccc2[nH]c([C@H]3C[C@H](O)[C@@H](CO)O3)nc12
82: Cc1ccc(C(=O)N=Nc2c(O)n(CCc3ccccc3)c3ccccc23)cn1
83: CC(=O)NCCNc1nc2cc(-c3ccccc3)sc2c(=O)n1C
84: COc1ccc(C=CC(=O)Nc2nc(C)c3c(n2)CCCC3)cc1S(=O)(=O)N1CCOCC1
85: C=CCNCc1nccn1Cc1ccc(C)cc1

Screen / compound no.	81	82	83	84	85
NPYLR7 ag max-min	15	-7	3	-1	-11
NPYLR7 ag	13	-5	6	-2	-17

86: COc1cccc(-c2cc(-c3ccc(C(=O)NCc4ccc(F)c(Cl)c4)cc3)[nH]n2)c1
87: CCN(Cc1cnn(CC)c1)Cc1nc(-c2ccco2)no1
88: CCc1nn(CC(=O)NC(C)CC)c(=O)c2cc3occc3n12 (stereo not drawn)
89: Cc1ccc(C)c(COc2cccn3c(CCN4C(=O)c5c(C)cc(C)cc5CC(C)(C)C4=O)cnc23)c1
90: CCC(C)Sc1nc2c(c(=O)[nH]c(=O)n2C)n1CCC(C)C (stereo not drawn)

Screen / compound no.	86	87	88	89	90
NPYLR7 ag max-min	11	-8	0	-2	6
NPYLR7 ag	24	-4	3	-2	5
